VDR inh – inhibitors of human vitamin D receptor. P11473. VDR-SRC2-3 peptide fluorescence polarization, 2 h. Potency, µM, inactives show max response, negative = inhibition, actives largely listed as inhibitors. 0.93% of 400,000 active. AID 504847; active = well fitted inhibition curve with a large enough effect; inconclusive = small, poorly fitted or top-dose-only effect, or another doubt; inactive = no such curve, though single readings can be large or run the other way; also: series mostly up to about 120 µM
Target sequence (P11473 whole entry, looked up): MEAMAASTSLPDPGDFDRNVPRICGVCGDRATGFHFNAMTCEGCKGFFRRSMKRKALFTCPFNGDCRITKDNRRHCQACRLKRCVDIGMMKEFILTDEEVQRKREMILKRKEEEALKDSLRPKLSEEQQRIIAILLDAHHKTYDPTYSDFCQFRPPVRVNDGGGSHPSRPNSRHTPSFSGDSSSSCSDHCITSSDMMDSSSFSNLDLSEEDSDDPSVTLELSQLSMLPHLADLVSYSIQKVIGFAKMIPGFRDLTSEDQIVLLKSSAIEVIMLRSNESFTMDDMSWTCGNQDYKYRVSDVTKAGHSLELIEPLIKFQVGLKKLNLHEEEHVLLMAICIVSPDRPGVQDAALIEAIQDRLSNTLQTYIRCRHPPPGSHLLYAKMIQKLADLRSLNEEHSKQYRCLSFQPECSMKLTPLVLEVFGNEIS
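After 23 nl compound addition and a short centrifugation, plates sat for 2 hours at ambient temperature; polarization of fluorescence then indicated loss of VDR binding to peptide SRC2-3.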
* hit, by the source's call; ? = inconclusive; & = joins results of further samples; [ ] = another dose, or the depositor's remark. % is scaled to controls: 0 for no effect and ±100 for the full control effect; potency is read from the fitted curve at half-maximal effect. Only part of the results is shown; rates above refer to the full screens.

SMILES | VDR inh
CC1(C)SC(=S)N(c2ccccc2)C1/[N+]([O-])=C/c1cccc([N+](=O)[O-])c1 (stereo not drawn) | 2%
CCCn1cc2c(c1-c1cccc(C)c1)c(=O)n(C)c(=O)n2C | -1%
CCOc1ccc(-c2nc(CSCC(=O)NCc3ccc(Cl)cc3)c(C)o2)cc1 | -2%
CCOc1ccc(C(=O)Nc2cccc(OCc3cc(=O)n4cc(C)sc4n3)c2)cc1 | -11%
CCCN(CCC)C(=O)Cn1c(=O)n(Cc2ccc(C(=O)NCCc3ccc(OC)c(OC)c3)cc2)c(=O)c2ccccc21 | -4%
CCOC(=O)Cn1c(O)c(N=NC(=O)OC)c2ccccc21 | -8%
CN1CCN(CCC(=O)N/N=C/C=C2\N(C)c3ccccc3C2(C)C)CC1 | -11%
O=C(COc1cccc(Cl)c1)N1CCC(c2nc3ccccc3s2)CC1 | -10%
Cc1ccc(S(=O)(=O)N2CCOCC2)cc1C(=O)NCc1cccnc1 | 4%
COc1ccc(C(=O)C2CCCN(C(=O)CCNC(C)=O)C2)cc1OC (stereo not drawn) | 0%
CN(C)C=Nc1nonc1-c1ccccc1 | 4%
CCC(C(=O)Nc1cc(-c2nc3cccnc3s2)ccc1C)c1ccccc1 (stereo not drawn) | 12%
CCCCN(CC)CCNC(=O)c1cc2cc3ccc(Cl)cc3nc2o1 | 5%
Cc1ccc(-c2cc(C(=O)N(Cc3ccc(C(C)(C)C)cc3)Cc3ccco3)no2)cc1 | 4%
COc1ccc(C2/C=C\CN(CC(C)C)C(Cc3ccccc3)C(=O)N2Cc2ccc(F)cc2)cc1 (stereo not drawn) | -22%
CCOc1cccc(C(=O)NC2CCCCC2)c1 | 9%
O=C(Oc1ccccc1)c1ccc2c(c1)C(=O)N(Cc1ccncc1)C2=O | -3%
Cc1cccc(NC(=O)c2sc3nc4c(cc3c2N)CN(Cc2ccccc2)CC4)c1 | -1%
Cc1ccc(OCC(=O)Nc2ccc(C)c(S(=O)(=O)N3CCCCC3)c2)c([N+](=O)[O-])n1 | -4%
CCc1ccc(N(CC)C(=O)c2cc3c(=O)oc4ccc(C)cc4c3s2)cc1 | -8%
COc1ccc(S(=O)(=O)N2CCC3(CC2)CC(=O)c2ccccc2O3)cc1OC | -8%
CC(C)NC(=O)c1cnn2c1NC(c1cccs1)CC2C(F)(F)F (stereo not drawn) | 21%
CCOC(=O)Cc1csc(SCC(=O)NC2CCS(=O)(=O)C2)n1 (stereo not drawn) | 17%
NCCC(=O)N1c2ccccc2Sc2ccccc21 | -5%
Cc1ccsc1S(=O)(=O)N1CCC(CO)(CC2CCCCO2)CC1 (stereo not drawn) | 1%
CCCCC1=CC2=CC(=O)C(C)(OC(=O)CC)C(=O)C2=CN1CCc1ccc(Br)cc1 (stereo not drawn) | 3%
CCOc1cccc2sc(NC(=O)c3ccc(S(=O)(=O)N4CCCCC4C)cc3)nc12 (stereo not drawn) | -7%
COc1ccc(-c2nc(N3CCCCCC3)sc2C(=O)c2ccccc2)cc1 | 22%
CSc1nncc(/C(C)=N\Nc2cccc(C)c2)n1 | -14%
CCP(=O)(CC)c1cccc(N)c1 | 11%
COc1ccc(NC(=O)CC2C(=O)NCCN2C(=O)c2ccccc2)cc1 (stereo not drawn) | 0%
Nc1cnn(Cc2ccc(F)cc2)c1 | 12%
O=C(CSc1ccccc1C(=O)O)Nc1ccc2c(c1)OCO2 | 5%
CCc1ccc(OCC(=O)Nc2ncn[nH]2)cc1 | -8%
Cc1ccc(CNC(=O)c2ccc(CS(=O)Cc3ccccc3Cl)o2)cc1 (stereo not drawn) | 21%
O=C(/C=C/c1ccc(Cl)cc1)N1CCN(c2c(Cl)cccc2[N+](=O)[O-])CC1 | 2%
CCCC(C)C(=O)Nc1cc([N+](=O)[O-])ccc1Cl (stereo not drawn) | 3%
CC(C)Oc1ccc(CNS(=O)(=O)c2cnc(N)nc2)cc1 | 3%
CCNc1c(NS(=O)(=O)c2ccc(C3CCCCC3)cc2)c(=O)oc2ccccc12 | -2%
CCC1CCCCN1C(=O)CSc1nc2ncccc2[nH]1 (stereo not drawn) | ?
CCOC(=O)c1c(N=CN(C)C)c(C#N)n2c1CCC2 | 16%
CC1Cc2ccccc2N1C(=S)NC1CCCC1 (stereo not drawn) | -6%
CCN(CC)S(=O)(=O)c1cccc(-c2nnc(SCC(=O)c3ccc(Cl)s3)n2C)c1 | 17%
COc1ccc(/C=C/c2ccccc2)cc1C1C2C=CCCC2(C)C(=O)N1Cc1ccccc1 (stereo not drawn) | -28%
COC(=O)C1C(O)=C(C=NCc2ccccc2)C(=O)CC1(C)C (stereo not drawn) | 7%
C[C@H](CO)N1C[C@H](C)[C@@H](CN(C)C(=O)NC2CCCCC2)Oc2ccc(NS(=O)(=O)c3ccccc3)cc2C1=O | 7%
COc1ccc(OC)c(S(=O)(=O)NCC2CCCO2)c1 (stereo not drawn) | -5%
Cn1cnnc1SCC(=O)NC1CCCN(Cc2ccc(Cl)cc2)C1 (stereo not drawn) | 11%
CCCc1cc(=O)[nH]c(SCC(=O)Nc2ccc([N+](=O)[O-])cc2C#N)n1 | -14%
COc1cccc(-n2c(SCC(=O)Nc3ccc4c(c3)OCO4)nc3c([nH]c4ccccc43)c2=O)c1 | 1%
O=C(COc1ccc(F)cc1Cl)Nc1ccc(N2CCOCC2)cc1N1CCOCC1 | -12%
COc1cc(O)c(C(=O)/C=C/c2ccc(O)c(OC)c2)c(OC)c1 | ?
Cc1nn2c(N)c(C#N)cnc2c1-c1ccc(Cl)cc1 | -17%
CCCCCOc1ccccc1CN1C(=O)C(=O)c2cc(C)ccc21 | ?
O=C(NCc1cn(-c2ccccc2)nc1-c1ccccc1)c1cc([N+](=O)[O-])cc([N+](=O)[O-])c1 | 17%
O=C(O)CCC(=O)N1CCN(c2ccc(C(=O)c3ccc(F)cc3)cc2)CC1 | 9%
CCOC(=O)c1ccc(NC(=O)CSCc2ccco2)cc1 | ?
N#Cc1c(-c2ccccc2)c(-c2ccccc2)nn(CC(=O)NNC(=O)Nc2ccc(Cl)c(Cl)c2)c1=O | 11%
O=C(CSc1nnc(-c2ccccn2)n1Cc1ccco1)c1ccc(Cl)cc1 | -5%
O=C(Nc1nc2ccccc2s1)C1CC(=O)N(c2ccc(F)cc2)C1 (stereo not drawn) | -4%

Three entries already listed, sorted by heavy-atom count, ascending.
SMILES | VDR inh
COc1ccc(OC)c(S(=O)(=O)NCC2CCCO2)c1 (stereo not drawn) | -5%
CCN(CC)S(=O)(=O)c1cccc(-c2nnc(SCC(=O)c3ccc(Cl)s3)n2C)c1 | 17%
O=C(COc1ccc(F)cc1Cl)Nc1ccc(N2CCOCC2)cc1N1CCOCC1 | -12%

New compounds follow
SMILES | VDR inh
O=C(NC1C2CC3CC(C2)CC1C3)c1ccc2c(c1)OCO2 (stereo not drawn) | 5%
C=CCSc1nc2[nH]ncc2c(=O)[nH]1 | -15%
O=C(COc1ccc(Cl)cc1Cl)N1CCN(C(=O)c2ccco2)CC1 | 31%[activator]
O=C(c1ccccc1)N1CCC2(CC1)NCCc1[nH]cnc12 | -5%
COc1ccc(N2CCN(C(=O)CCc3ccccc3OC)CC2)cc1 | -13%
O=C(NCCN1CCN(S(=O)(=O)c2ccccc2)CC1)C(=O)Nc1ccc(F)cc1 | -15%
CN(C)/C=N/S(=O)(=O)c1ccc(Cl)cc1 | -5%
CC(=O)N1CCOc2ccc(S(=O)(=O)NCCc3ccccc3)cc21 | 8%
O=C(CSc1nnc(Cc2ccccc2)o1)N1CCc2ccccc21 | -14%
O=C(N/N=C/c1ccc(OC(=O)c2cccs2)cc1)c1ccc(F)cc1 | -24%
CC1CCN(CCCNC(=O)c2cc3c(=O)n(C)c4ccccc4c3n2C)CC1 | -20%
Cc1nnc(Nc2ccc(C(=O)O)cc2)[nH]c1=O | 9%
COc1ccccc1CNc1ncnc2ccc(-c3ccc4c(c3)OCO4)cc12 | -6%
Cc1ccc(S(=O)(=O)N2CCC(NC(=O)c3cccc(F)c3)CC2)cc1 | 3%
CCC1CN(C(=O)NCc2ccc(C)cc2)c2cc(C)ccc2O1 (stereo not drawn) | -4%&16%
COC(=O)c1ccc(OC)c(Cn2c(=O)n(Cc3ccccc3)c(=O)c3c2c2cc(OC)ccc2n3C)c1 | 17%
Cc1ccc2c(c1)C(c1ccccc1)N(C(=O)CC(C)C)CC(=O)N2 (stereo not drawn) | 3%
CCN(CCCNC(=O)C1CCN(S(=O)(=O)CC)CC1)c1ccccc1 | -12%
O=C(COC(=O)CCc1ccc(S(=O)(=O)N2CCOCC2)cc1)NC1CCCC1 | -15%
Cc1c(NC(=O)Cn2cc([N+](=O)[O-])cn2)c(=O)n(-c2ccccc2)n1C | -11%

The final 4 entries of the part before are carried over, then new ones follow:
SMILES | VDR inh
Cc1ccc2c(c1)C(c1ccccc1)N(C(=O)CC(C)C)CC(=O)N2 (stereo not drawn) | 3%
CCN(CCCNC(=O)C1CCN(S(=O)(=O)CC)CC1)c1ccccc1 | -12%
O=C(COC(=O)CCc1ccc(S(=O)(=O)N2CCOCC2)cc1)NC1CCCC1 | -15%
Cc1c(NC(=O)Cn2cc([N+](=O)[O-])cn2)c(=O)n(-c2ccccc2)n1C | -11%
Cc1cc(C)cc(NC(=O)CN(c2ccc(F)cc2)S(C)(=O)=O)c1 | ?
Cc1nn(Cc2ccc(Cl)cc2Cl)c(Cl)c1/C=C/C(=O)OCC(=O)NCC(F)(F)F | 9%
COc1cccc(C(=O)Nc2ccc(NC(=O)c3ccco3)nc2)c1 | 3%
Cc1n[nH]c(C)c1S(=O)(=O)N1CCCC(C(=O)NCc2cccs2)C1 (stereo not drawn) | 3%
CCN(CC)S(=O)(=O)c1ccc(OC(C)C)c(N)c1 | -1%
C/C(=N/NC(=O)CNC(=O)C1COc2ccccc2O1)c1ccc2c(c1)OCCO2 (stereo not drawn) | -2%
COCCCNC(=O)C1CCN(c2cc(C)nc3c(-c4ccc(Cl)cc4)c(C)nn23)CC1 | -18%
COC(=O)COc1ccc(-c2nccc(-c3ccccn3)n2)cc1 | 4%
O=C(CSc1nccc(=O)[nH]1)c1cc2ccccc2o1 | -1%
CCc1c(C)nc2ncnn2c1N1CCCC(C(=O)NCCc2ccc(OC)cc2)C1 (stereo not drawn) | -14%
CC(C)C(O)(c1ccccc1)C(CN1CCOCC1)c1ccccc1 (stereo not drawn) | -9%
COc1ccc(C)cc1Nc1n[n+](-c2ccccc2)c(-c2c(OC)ccc3ccccc23)s1 | -27%
CN(Cc1nc(Cc2ccccc2F)no1)CC1(N2CCOCC2)CCCCC1 | -19%
CCOc1ccc(Nc2nc3cc(S(=O)(=O)N(CC)CC)ccc3o2)cc1 | 79µM*
Cn1c(=O)oc2cc(S(=O)(=O)CCC(=O)NCCc3ccc(Cl)cc3)ccc21 | 20%
COc1ccc(CC2(C)OC(c3ccc(C)cc3)=NN2C(C)=O)cc1 (stereo not drawn) | 10%
Cn1c(=O)c(C(=O)COC(=O)c2cc(C3CC3)nc3ccccc23)c(N)n(Cc2ccccc2)c1=O | -9%
CCOC(=O)c1[nH]c2c(c1C)C(=O)CC(c1ccc(N(C)C)cc1)C2 (stereo not drawn) | -7%
O=C(CSc1ccccn1)N1CCN(c2ccc(Cl)cc2)CC1 | -21%
O=C(CC1Oc2ccccc2NC1=O)NC1CCCC1 (stereo not drawn) | 0%

A few values from above.
Cn1c(=O)c(C(=O)COC(=O)c2cc(C3CC3)nc3ccccc23)c(N)n(Cc2ccccc2)c1=O in VDR inh: -9%
C/C(=N/NC(=O)CNC(=O)C1COc2ccccc2O1)c1ccc2c(c1)OCCO2 (stereo not drawn) in VDR inh: -2%
CN(Cc1nc(Cc2ccccc2F)no1)CC1(N2CCOCC2)CCCCC1 in VDR inh: -19%

Following part:
SMILES | VDR inh
CSc1nc(-c2ccccc2)nn1C(=O)c1ccccc1 | -1%
C/C=C\C=C\C(=O)N1CC2(CC(c3cccc(NC(=O)/C(C)=C\C)c3)=NO2)C[C@H]1C(N)=O (stereo partly drawn) | ?
Cc1nonc1C(=O)N/N=C/c1ccccc1 | -9%
O=C(NC(=O)N1CCN(c2ccccc2)CC1)c1ccc(Cl)cc1 | 2%
CC(=O)c1ccc(NC(=O)CN2CCCC2)cc1 | -4%
Cc1c(C)c2c(C)[nH]nc2oc1=O | 1%
CC(C)Oc1ccc(CNC(=O)c2ccccc2NC(=O)c2nsc3ccccc23)cc1 | -12%
Cc1cc(C)c(S(=O)(=O)c2ccccc2C)c(OCC(C)(C)C)n1 | -6%
CCn1c(CNC(=O)c2cc(OC)c(OC)c(OC)c2)cc2ccccc21 | 14%
O=C(NCC1CCCO1)c1cc(S(=O)(=O)N2CCCCC2)ccc1Cl (stereo not drawn) | -7%
O=C(O/N=C(\c1ccccc1)c1ccncc1)c1ccccc1Cl | ?
CC(NC(=O)C1CCCN1S(=O)(=O)c1cccc2nsnc12)c1ccccc1 (stereo not drawn) | 7%
C=CC[C@H](CC(=O)N(CCO)Cc1ccccc1)C(=O)N[C@H](C)COC(=O)[C@@H](CC=C)CC(=O)OC(C)(C)C | ?
CC(=O)N1CCN(C(=O)CCNS(=O)(=O)c2ccccc2)CC1 | 1%
O=c1[nH]cc(CN2CCOCC2)c(=O)[nH]1 | -11%
Cc1ccc(S(=O)(=O)N(C)c2c(C)ccc(S(=O)(=O)N3CCN(C)CC3)c2C)cc1 | -6%
Cc1onc(-c2c(F)cccc2Cl)c1C(=O)OCC(=O)NCc1ccco1 | -7%
COC(=O)c1c(NC(=O)CC2NCCNC2=O)sc2c1CCCC2 (stereo not drawn) | -2%

Four of the entries above in order of their number in VDR inh, descending.
mol,VDR inh
Cc1ccsc1S(=O)(=O)N1CCC(CO)(CC2CCCCO2)CC1 (stereo not drawn),1%
CCCn1cc2c(c1-c1cccc(C)c1)c(=O)n(C)c(=O)n2C,-1%
Cc1ccc(S(=O)(=O)N(C)c2c(C)ccc(S(=O)(=O)N3CCN(C)CC3)c2C)cc1,-6%
CCCc1cc(=O)[nH]c(SCC(=O)Nc2ccc([N+](=O)[O-])cc2C#N)n1,-14%

From PubChem
